Assay outcomes (PubChem BioAssay)
gsp ag = agonists of gsp mutant (McCune-Albright syndrome); 340,000 compounds, 0.13% hits; Potency, µM (top dose mostly 76.9 µM), inactives show at the top dose activation (cAMP increase), actives largely listed as activators; gsp mutant cells, cAMP HTRF, 30 min; control for the full effect not named in the record; active = well fitted activation curve with a large enough effect; inconclusive = small, poorly fitted or top-dose-only effect, or another doubt; inactive = no such curve, though single readings can be large or run the other way; cell line not stated here;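 note: phosphodiesterase inhibitor Ro 20-1724 added with compounds to block cAMP breakdown; potency is the fitted concentration of half-maximal effect; nearly all actives have a fitted effect of over 60% in size; about a fifth of the inactives were tested at one dose only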
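Cells in DMEM/10% FBS with G418 were pretreated with compounds in DMSO plus […] (300 uM stock) for 30 min at 37C. cAMP was measured by HTRF (cAMP-d2 plus anti-cAMP antibody-K) after 30 min at room temperature.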
Menin MLL FP FL = displaces fluorescein MLL peptide from human menin. Fluorescence polarization, fluorescein-MLL peptide displacement from menin. FP activity change, % at 61.4 µM. 290,000 tested, under 10 active. AID 1766; inconclusive = falling polarisation curve, or a change in total fluorescence; inactive = total fluorescence flat and polarisation flat or rising; no compound was filed as active; the % refers to the polarisation; negative = inhibition;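 note: % of control where 0% means no effect; inhibitors lower the polarisation; unlabelled MLL peptide was the positive control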
ClpP mod = qHTS Assay for Activators of ClpP | ATP-dependent Clp protease proteolytic subunit (Bacillus subtilis (strain 168)), P80244 | purified B. subtilis ClpP, FRET peptide cleavage, 20 min | Potency, µM (top dose mostly 57.5 µM), inactives show at the top dose activity change, negative = active | 340,000 compounds, 1.9% hits | AID 651965, 2013; active = well fitted falling curve with a large enough effect; inconclusive = small, poorly fitted or top-dose-only effect; inactive = no such curve, though single readings can be large or run the other way; note: potency is the fitted concentration of half-maximal effect; the source files actives as falling curves though it sought activators and does not explain the sign; nearly all actives have a fitted effect of over 65% in size; many hits overshoot -100%
Target sequence (P80244 whole entry, looked up): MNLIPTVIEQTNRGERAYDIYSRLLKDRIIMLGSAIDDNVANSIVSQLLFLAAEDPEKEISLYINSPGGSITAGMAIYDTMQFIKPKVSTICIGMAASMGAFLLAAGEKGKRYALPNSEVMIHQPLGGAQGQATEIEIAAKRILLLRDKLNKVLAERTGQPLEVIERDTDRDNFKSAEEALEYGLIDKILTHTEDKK
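FRET quenching reversal measured ClpP activation: 10 microg/mL B. subtilis ClpP at pH 8 with the FRET-FV decapeptide, read at 430 nm after 320 nm excitation. The 20-min minus 0-min signal was scaled between DMSO/no-enzyme wells and ADEP (5.8 microM final).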
PINK1 modulator = changes PINK1 expression; Potency, µM (top dose mostly 76.6 µM), without a hit: at the top dose activation (PINK1 increase), actives largely listed as activators; AID 624263; PINK1 immunofluorescence, high-content cytometry, 24 h; 410,000 compounds, 0.2% hits; active = well fitted activation curve with a large enough effect; inconclusive = small, poorly fitted or top-dose-only effect; inactive = flat fitted curve, though single readings scatter; cell line not stated here;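 note: potency is the fitted concentration of half-maximal effect; % of control where 0% means no effect; nearly all actives have a fitted effect of over 65% in size; a mitochondrial uncoupler was the plate control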
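Compound titrations (5 concentrations, 24 h) on a stable cell line; DMSO and CCCP controls. Endpoint: fixed-cell PINK1 immunofluorescence with mitochondrial, cell and nuclear markers, scanned by microplate cytometer.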
gsp antagonist = antagonists of gsp mutant (McCune-Albright syndrome); gsp-mutant cells, cAMP HTRF, 30 min; control for the full effect not named in the record; Potency, µM (top dose mostly 76.9 µM), without a hit: at the top dose activity change, negative = inhibition, most hits filed as inhibitors; 340,000 compounds, 0.4% hits; active = falling curve of any shape with a large fitted effect; inconclusive = falling curve, mostly with a smaller effect; inactive = flat or rising curve; cell line not stated here;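 note: intracellular cAMP measured with PDE inhibitor Ro 20-1724 present during compound exposure; potency is the fitted concentration of half-maximal effect; % is set by controls: 0 for no effect and ±100 for the full control effect; nearly all actives have a fitted effect of over 65% in size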
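Cells, 2000/well, grown 16–24 h in DMEM 10% FBS with 0.5 mg/ml G418, then compounds plus […] (300 uM addition stock), 30 min at 37C. cAMP read by HTRF (cAMP-d2 and anti-cAMP antibody-K in lysis buffer) after 30 min RT.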
Sfp inh = inhibitors of Bacillus subtilis Sfp phosphopantetheinyl transferase | Biochemical Sfp PPTase activity, qHTS | 310,000 compounds, 3.5% hits | Q9F4F7 | Potency, µM, for the others: max response, negative = inhibition, usual class: inhibitors; active = well fitted inhibition curve with a large enough effect; inconclusive = small, poorly fitted or top-dose-only effect, or another doubt; inactive = no such curve, though single readings can be large or run the other way;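 note: the enzyme is Sfp with the accession as filed and its product quenches rhodamine fluorescence; potency is the fitted concentration of half-maximal effect; 0% = enzyme reaction without inhibitor and -100% = no enzyme wells; top concentration of the series not given in the record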
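Buffer: 50 mM Hepes-Na pH 7.6, 10 mM MgCl2, 0.01% Nonidet P-40, 0.01% BSA. Enzyme 15 nM, pre-exposed to compound 15 min; substrates then added and fluorescence change tracked over 30 min.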
D2 agonist = agonists of human D2 dopamine receptor (beta-arrestin). DiscoveRx PathHunter D2 beta-arrestin, luminescence, 90 min; 100% = 57 uM dopamine signal. activation, % (no concentration beside the values). 360,000 compounds, 0.084% hits. AID 624465; in the data active = activation above about 40%; inconclusive = about 15% to 40%; inactive = below about 15%; note: compound concentration not given in the record; the text of the record calls up to 30% inactive
Target sequence (P14416 whole entry, looked up): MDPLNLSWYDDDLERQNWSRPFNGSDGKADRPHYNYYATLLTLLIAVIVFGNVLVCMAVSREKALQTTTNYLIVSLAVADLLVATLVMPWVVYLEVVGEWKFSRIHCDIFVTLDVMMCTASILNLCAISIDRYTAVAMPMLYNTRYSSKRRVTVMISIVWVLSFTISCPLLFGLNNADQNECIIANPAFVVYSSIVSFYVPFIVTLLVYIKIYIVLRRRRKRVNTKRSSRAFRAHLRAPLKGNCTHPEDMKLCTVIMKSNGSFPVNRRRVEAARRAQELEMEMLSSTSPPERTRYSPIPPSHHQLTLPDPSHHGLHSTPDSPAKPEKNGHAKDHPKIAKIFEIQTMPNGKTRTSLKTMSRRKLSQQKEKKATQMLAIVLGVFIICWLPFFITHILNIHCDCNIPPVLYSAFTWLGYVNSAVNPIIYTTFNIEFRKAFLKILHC
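DiscoveRx PathHunter D2 beta-arrestin cells (2,100/well) attached overnight, then compound-stimulated 90 min at 37 C in HBSS/10 mM HEPES/0.1% Tween-20 buffer; beta-galactosidase complementation read by luminescence after 1 h at ambient temperature. Dopamine 57 uM final (EC100) as control.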
The depositor's hits bear a star; u = inconclusive; x = no result given; & = joins results of further samples; [ ] = another dose, or the depositor's remark.

SMILES | gsp ag | Menin MLL FP FL | ClpP mod | PINK1 modulator | gsp antagonist | Sfp inh | D2 agonist
Cc1cccc2sc(NC(=O)CN3C(=O)c4ccccc4C3=O)nc12 | 17.9% | -1.5 | -16.6% | 3.6% | -8.9% | -19.9% | -0.8
O=c1c2ccccc2nc(SCc2cc([N+](=O)[O-])cc3c2OCOC3)n1-c1ccccc1 | -62.4%[inhibitor] | 3.1 | -3.1% | -0.3% | 3.6% | 4.1% | -0.7
COc1ccc(CCNC(=O)C2CCC(CNS(=O)(=O)c3ccc(F)cc3)CC2)cc1OC (centres undefined) | 11.6%[15.4 µM] | 2.3 | x | 1.4% | -1.7% | 10.1% | -1.2
CCO[C@@H]1OC(C(=O)NC2CC2)=C[C@H](C(C)(C)C)[C@H]1CCCO | x | -1.7 | -0.8% | 0.3% | 4.3% | 4.2% | -0.6
CCn1c(=O)c(C(=O)NCc2ccc(Cl)cc2)c(O)c2ccccc21 | -1.7% | -2.5 | u | 16.5% | -2.6% | 13.0% | -2.3
COc1ccc(-c2nc3ccc(Cl)cn3c2Cc2ccsc2)cc1OC | x | x | -24.8% | 2.0% | x | x | 5.0
Cc1ccccc1OCC(=O)NNC(=O)Cn1[nH]c(=O)c2ccccc2c1=O | -11.5% | x | x | -3.5% | -1.4% | x | -4.0
CC(c1nccs1)N(C)C(=O)c1ccc(OC2CCN(CCc3ccccc3)CC2)cc1 (centres undefined) | -13.3% | -6.5 | 0.6% | 1.1% | 12.2% | -0.2% | -4.6
CC(C)(C)c1cc(NCCCn2ccnc2)n2ncc(-c3ccccc3)c2n1 | -19.5% | 1.4 | x | -1.2% | -25.6% | -10.6% | u
Cc1ccccc1NC(=O)c1ccc(Cn2cc([N+](=O)[O-])cn2)o1 | -0.4% | -2.0 | 0.9% | -1.0% | 8.9% | 6.7% | -6.1
CCn1nccc1C(=O)Nc1ccc(C(=O)OC(C)C)cc1 | 9.3% | 0.0 | 1.3% | -0.6% | 4.9% | 9.8% | 1.3
COCCNC(=O)[C@H](C)[C@H]1C[C@]1(C)[C@H](NC(=O)OCc1ccccc1)c1ccccc1 | x | -1.7&1.0 | -0.3% | 2.3% | -0.4% | -1.7%&44.0% | 1.6
CC1(C(=O)NS(=O)(=O)c2ccccc2)CCN1C(=O)CCc1ccccc1 (centres undefined) | x | x | -0.8% | 1.6% | x | x | -1.7
O=C1N/C(=C/c2cccs2)C(=O)N1Cc1ccc(F)cc1 | -4.4%[15.4 µM] | -2.8 | x | 8.0% | 14.5% | 17.5% | -5.0
Cc1ccc(NC(=O)C2CC(=O)NC(N3CCc4ccccc43)=N2)cc1 (centres undefined) | -6.8% | 1.3 | 0.6% | 0.8% | -3.6% | -16.4% | -3.6
CCOc1ccc(NC(=O)[C@@H](NC(=O)c2ccccc2)[C@@H](C)CC)cc1 | -5.1% | -0.9 | 0.2% | 0.7% | 5.7% | 5.4% | -5.6
CCCCOc1ccccc1NC(=O)Cn1c(-c2nonc2N)nc2ccccc21 | u | 1.8 | -1.0% | 8.3% | 20.8% | -1.7% | 0.9
Nc1nc2n(n1)C(=O)CC(c1ccc(Cl)cc1)N2 (centres undefined) | -2.2% | -0.3 | 0.4% | 4.2% | 0.4% | -4.4% | -3.1
COc1ccc(NC2=C(Cl)C(=O)N(CCc3ccccc3)C2=O)c(OC)c1 | -12.5% | 15.8 | -1.5% | 2.7% | -16.7% | 3.7% | -0.1
O=C1NC(=S)NC(=O)C1Nc1ccc(Cl)cc1 | -17.9% | x | x | -0.7% | 9.8% | x | -6.6
COc1ccc(CNC(=O)c2sccc2-c2ccccc2)cc1OC | -0.8% | x | -0.2% | 0.5% | -11.3% | -3.8% | -0.3
COc1ccc(C2C(=O)N(CCc3ccccc3)CC(=O)N2C2CCCCC2)cc1 (centres undefined) | 1.9% | 4.0 | -3.5% | -1.3%[38.3 µM] | 0.0% | -9.1% | -2.0
CCc1cccc(NC(=O)C2CCN(S(=O)(=O)c3ccc4c(c3)NC(=O)CO4)CC2)c1 | 0.4% | x | 4.4% | -0.1% | -2.1% | 10.3% | 4.8
Cc1cc(C(=O)CSc2nnnn2C)c(C)n1-c1cccc(F)c1 | -1.7% | -0.8 | 2.1% | 13.0%[38.3 µM] | -13.8% | -3.0% | 0.7
CN(C)S(=O)(=O)c1cccc(NC(=O)COC(=O)CCc2nc3ccccc3s2)c1 | 9.9% | 1.7 | 0.9% | 1.9% | -12.4% | -0.8% | -1.7
SMILES | gsp ag | Menin MLL FP FL | ClpP mod | PINK1 modulator | gsp antagonist | Sfp inh | D2 agonist
CC1CC(C)CN(c2ccc(C(=O)OCC(=O)NC3CCCc4ccccc43)cc2[N+](=O)[O-])C1 (centres undefined) | -25.4% | 1.4 | 1.1% | 0.2% | -3.2% | 17.2% | -1.6
O=C(COc1ccc(CO)cc1)Nc1ccc(F)cc1 | 11.2% | 2.8 | -0.5% | x | 5.9% | 9.7% | -1.3
O=c1cc(-c2ccccc2)nc2cc(-c3ccc(Br)cc3)[nH]n12 | -13.1% | 2.9 | u | -0.3% | 7.6% | -10.3% | -16.8
CC(=O)NC(=S)Nc1ccccc1F | 11.0% | 0.4 | 1.1% | -0.4% | 4.4% | 10.6% | -1.4
O=C(CCc1nc(-c2ccccc2Cl)no1)NC1CCCCC1 | -13.9% | x | x | 3.2% | -9.2% | -5.8% | -3.0
COc1cccc(Cn2c(=O)c3ccccc3n3nc(C)cc23)c1 | 29.5%[15.4 µM] | 1.9 | -0.7% | 8.9% | -22.0% | -1.9% | -0.1
O=C(c1ccc(S(=O)(=O)Nc2cccc(C(F)(F)F)c2)cc1)N1CCC1 | 10µM* | x | u | u | -5.5% | 25.4% | 0.0
Cc1ccsc1C(=O)OCC(=O)N(C)C1CCCCC1 | -4.1% | x | -1.4% | 0.8% | 9.1% | x | -4.0
CCN1C(=O)[C@H]2[C@@H](c3ccc(C)cc3)N3C(=O)N(c4cccc(Cl)c4)C(=O)[C@@]3(Cc3ccccc3)[C@H]2C1=O | -5.3% | x | 0.8% | 1.0% | -6.6% | x | -0.9
CC(=O)N1CCC(C(=O)N2CCN(S(=O)(=O)c3ccc(Cl)s3)CC2)CC1 | -10.5%[15.4 µM] | x | 1.1% | 1.8% | 1.4% | x | 0.7
Cc1c(C(=O)N(C)C)sc2nc(-c3ccccn3)[nH]c(=O)c12 | -1.2% | 10.4 | u | 2.2% | 8.1% | 89.1µM* | -1.1
CC(=O)NS(=O)(=O)c1ccc(NC(=O)/C=C/c2ccc(C)o2)cc1 | -4.3%[15.4 µM] | -3.3 | x | 0.8% | x | 5.01µM* | -1.1
O=C(CN1C(=O)NC2(CCCCC2)C1=O)Nc1cccc(S(=O)(=O)N2CCCC2)c1 | u | x | 0.8% | 0.1% | 7.0% | x | -1.5
O=C(CNC(=O)c1cccs1)NCC(=O)OCc1cccc(Cl)c1 | -24.3% | 2.8 | -1.7% | x | -0.5% | 25.8% | -0.5
Cc1ccc(S(=O)(=O)N2C[C@H]3n4c(=O)ccc(=O)n4C[C@H](OC(=O)NC4CCCC4)[C@@]3(O)C2)cc1 | 14.3% | x | -0.3% | 6.8% | x | x | -1.4
NC(=O)c1nsc(C(=O)N(c2ccc3c(c2)OCCO3)C(C(=O)NCC2CCCO2)c2ccc(F)cc2)c1N (centres undefined) | 20.3% | 0.1 | x | 1.9% | -16.2% | 20.4% | -4.6
CCc1nc2ccc(C(=O)Nc3cccc(NS(C)(=O)=O)c3)cn2c1N(CC)CCOC | x | x | 0.4% | 0.0% | x | x | 11.4
Cc1occc1C(=O)Nc1nnc(C2CCCCC2)s1 | -41.8%[inhibitor] | 3.1 | 1.6% | -2.9%[38.3 µM] | -3.3% | 4.0% | -0.2
CC1=CC(C)(C)n2c(O)c(N=N)c3cc(C)cc1c32 | -23.8% | 7.5 | 0.2% | 2.7% | 2.0% | -12.2% | -0.6
CCOC(=O)c1ccc(N2C(=O)C(CC(N)=O)N(CCc3ccc(OC)c(OC)c3)C2=S)cc1 (centres undefined) | 12.6%[15.4 µM] | 2.0 | x | -0.4% | -3.5% | u | -2.4
CN1C2CCC1CC(NS(=O)(=O)c1cc(Cl)c(Cl)cc1Cl)C2 (centres undefined) | -36.9%[inhibitor] | x | 35.5µM* | -0.2% | -1.9% | 7.4% | -2.9
O=[N+]([O-])c1ncccc1OCc1ccc(Br)cc1F | -22.1%[15.4 µM] | -12.9 | x | -0.1% | 6.7% | 4.8% | -4.7
CCn1c(N2CCN(C(=O)Nc3ccc(F)cc3)CC2)nc2ccccc21 | u | 3.7 | -2.6% | 0.0% | -4.1% | 13.4% | 7.0
CN(C)c1ncnc2c1ncn2[C@H]1CN(CCN2CCOCC2)C[C@@H](CO)O1 | x | x | 0.7% | 0.4% | x | x | -5.6
COc1cc(/C=N/n2c(C3CCCCC3)n[nH]c2=S)cc(OC)c1O | -5.5% | -6.6 | x | 2.8% | 5.0% | -7.0% | -4.7
O=C(NCc1cccc(Cl)c1)c1cccc(C(F)(F)F)c1 | -2.8% | 5.2 | -1.3% | 3.7%[38.3 µM] | -22.3% | 2.6% | -1.3
O=C(CNC(=O)c1ccccc1F)c1ccccc1 | 13.8% | 1.6 | -19.6% | 0.5% | 12.6% | 20.7% | -5.4
C=CCn1c(SCc2cccc(C#N)c2)nnc1-c1ccccc1O | -3.7% | 3.9 | -1.0% | -0.9% | -7.0% | 0.8% | -7.4
O=C(CNC(=O)c1ccccc1F)N/N=C\C=C\c1ccccc1 | -2.7% | x | 1.8% | 1.1% | -7.1% | 1.5% | -0.1
CCC(=O)Nc1cccc(C(=O)/C=C/c2cc(Br)ccc2OC)c1 | -19.5% | 6.4 | -3.4% | -2.5% | -28.7% | -16.1% | -2.9
